# Autofluor counter = flagged as autofluorescent in microsphere protease counterscreen; compound autofluorescence counterscreen, microsphere flow cytometry; active compounds read high; fluorescence intensity (concentration not given with the values); actives 3.1% (n = 360,000); AID 624483;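 active = at least 3 SD above the mean of all compounds, about 16000 in these data; inconclusive = too few beads counted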;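 also: 100 nL of 1 mM stock went into each well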
# BJeLR lethal = MLPCN primary cell-based screen for lethality selective to Ras in HRASV12 cells; inhibition, % (concentration not given with the values); BJeLR (HRASV12) viability, CellTiter-Glo ATP luminescence, 48 h; reference of the scale not given here; actives 0.17% (n = 300,000);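 active = replicate mean above 50%; inconclusive = above 50% but judged a plate artefact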;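 also: 50 nL library stock added to about 25 µL; numbers are from one replicate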
# Mtb hypoxia rep = PubChem AID 1159583; M. tuberculosis hypoxia-regulated fluorescent reporter, fluorescence; fluorescence inhibition, % (concentration not given with the values); actives 0.1% (n = 300,000);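 active = 35 to 45% if threefold the growth effect, above 45% if 1.5-fold the growth effect; inactive = the rest, general growth blockers included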;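 also: wells of about 50 µL received 100 nL stock; 0% = vehicle wells and 100% = reference inhibitor wells; whole bacteria with a GFP reporter of the hypoxia response; strong numbers were not always called active; many hits fall short of the cut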
# Sa ugtP lethal = growth inhibition of ugtP-null S. aureus, primary screen, RN4220 ugtP deletion, OD600 | 16 h; some inactives read as strong as hits | growth inhibition, % (test concentration not listed) | actives 0.54% (n = 330,000);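 active = z-score under -3 and OD600 up to 0.15 on both plates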;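 also: plate controls were untreated wells for no effect and antibiotic for full effect; wells of about 80 µL received 100 nL stock; the first replicate is given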
# Sa RN4220 lethal = growth inhibition of S. aureus RN4220, primary screen, OD600; AID 1259311, 2017; 16 h; actives 0.33% (n = 330,000); inhibition, % (test concentration not listed);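 active = z-score of -3 or lower and OD600 up to 0.18 on both plates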;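 also: plate controls were untreated cells for no effect and reference antibiotic for full effect; stock transfer was 100 nL into about 80 µL; one replicate is shown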
# PrP 5UTR inh = inhibition of PrP 5' UTR reporter expression; cell-based PrP 5' UTR mRNA reporter, plate reader; AID 488862, 2010; inhibition, % (no concentration beside the values); actives 0.35% (n = 340,000);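 active = every replicate at 50% or more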;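 also: 0 = median of the neutral control wells; tested in H4 reporter cells; numbers are from one replicate; inactives centre near -14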
# Mtb hypoxia rep growth = second read-out of Mtb hypoxia rep, no call of its own (marks repeat the call); growth inhibition, %; measured here: M. tuberculosis growth (absorbance);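 0% = vehicle and 100% = reference antibiotic; read after six days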
# * marks the source's active call; other numbers are inactive results; u = inconclusive; x = no result given. Outcome played no part in choosing rows; 4% or so of the library scored in one or more.
SMILES,Autofluor counter,BJeLR lethal,Mtb hypoxia rep,Mtb hypoxia rep growth,Sa ugtP lethal,Sa RN4220 lethal,PrP 5UTR inh
Cc1ccc(Oc2c(CO)c(-c3ccccc3)nn2C)cc1,4634,-3,-3,7,2,6.8,-21
O=C(NCCC1=CCCCC1)C(=O)NCC1OCCCN1S(=O)(=O)c1ccc(F)cc1 (configuration not stated),2546,-2,-2,0,11,4.1,-9
CCOC(=O)N1CCN(C(=O)c2cc3n(n2)C(C(F)(F)F)CC(c2ccc4c(c2)OCO4)N3)CC1 (configuration not stated),u,4,1,-12,2,7.2,-7
COc1ccccc1NC1=C(C)C(=O)CC1,2635,7,x,x,1,-0.8,-3
Cc1c(C(=O)N2CCN(c3ccccc3F)CC2)sc2ncn(CC(=O)N3CCOCC3)c(=O)c12,9421,17,3,4,0,4.2,-8
CCN(C[C@H]1N[C@@](CC)(C(=O)OC)[C@H]2C(=O)N(C)C(=O)[C@@H]12)C(=O)COc1ccccc1,3889,x,1,4,5,-0.8,-27
CN1CCN(C(=O)c2cc(-c3cccc(Cl)c3)on2)CC1,10742,-6,11,7,5,4.3,x
O=[n+]1cc(-c2ccccc2)n([O-])c2c1CCCCC2,2377,-38,11,8,1,3.8,-25
CCOc1ccc(C=Nn2cc(-c3ccccc3)[nH]c2=S)cc1,x,x,x,x,6,4.0,x
O=C(CCn1cccc1)NCc1ccc2c(c1)OCO2,2111,-8,x,x,-3,3.5,-3
CCc1nnc(NS(=O)(=O)c2ccc(NC(=O)c3cccc([N+](=O)[O-])c3)cc2)s1,5620,3,-2,10,-1,-1.5,-11
CN(C)S(=O)(=O)c1ccc(N2CCCC2)c(C(=O)NNC(=O)COc2ccccc2F)c1,5165,-6,8,7,0,4.9,-24
O=C(CN(Cc1ccc(Cl)cc1)C(=O)CNS(=O)(=O)c1ccc(F)cc1)NCC1CCCO1 (configuration not stated),4997,-16,-5,-2,-1,9.4,-18
CCn1c(C)cc(/C=C2/NC(=O)N(c3ccccc3)C2=O)c1C,2065,0,1,-6,5,1.7,-89
Cc1ccc(CCNC(=O)Cc2ccc(NC3=NC4CS(=O)(=O)CC4S3)cc2)cc1 (configuration not stated),4258,-4,3,4,-6,-12,-11
Cc1nn(-c2ccccc2)c2nc(-c3ccccc3)cc(C(=O)N3CCOCC3)c12,4324,8,8,3,16,-1.2,-10
CCC(=O)Oc1ccc2c(C)cc(=O)oc2c1C,4878,20,x,x,-1,1.8,-2
c1ccc(C2=NNC(c3ccccn3)=NN2)nc1,3088,6,0,-2,11,-0.1,-8
CCOC(=O)N/N=C/c1cn(Cc2ccccc2Cl)c2ccccc12,2669,7,x,x,x,x,-22
Cc1cccc(C(=O)OCC(=O)N(C)CC(=O)Nc2ccc(Cl)c(C(F)(F)F)c2)c1,9096,x,4,2,0,13,-12
CCOC(=O)c1c(C)[nH]c(C(=O)C(C)Cl)c1C (configuration not stated),4752,-3,8,12,2,7.2,1
Cc1cc2c(c(=O)n1C)C(C(C)C)C(C#N)=C(N)O2 (configuration not stated),3458,-8,x,x,x,x,-3
Cc1oc(-c2ccccc2Cl)nc1CS(=O)CC(=O)NCc1ccccc1Cl (configuration not stated),4170,-2,2,2,3,1.2,-13
CC1SCC(=NOCc2ccccc2)CS1 (configuration not stated),x,4,-6,1,4,1.6,x
O=C(C1CC(=O)N(C2CCCC2)C1)N1CCN(c2cccc(Cl)c2)CC1 (configuration not stated),6259,-11,6,-3,9,2.2,2

# An excerpt of these results, with two lines to a compound.
# Each structure is followed by: Autofluor counter	BJeLR lethal	Mtb hypoxia rep	Mtb hypoxia rep growth	Sa ugtP lethal	Sa RN4220 lethal	PrP 5UTR inh
> CCc1nnc(NS(=O)(=O)c2ccc(NC(=O)c3cccc([N+](=O)[O-])c3)cc2)s1
 : 5620	3	-2	10	-1	-1.5	-11
> CN(C)S(=O)(=O)c1ccc(N2CCCC2)c(C(=O)NNC(=O)COc2ccccc2F)c1
 : 5165	-6	8	7	0	4.9	-24
> O=C(CN(Cc1ccc(Cl)cc1)C(=O)CNS(=O)(=O)c1ccc(F)cc1)NCC1CCCO1 (configuration not stated)
 : 4997	-16	-5	-2	-1	9.4	-18
> CCn1c(C)cc(/C=C2/NC(=O)N(c3ccccc3)C2=O)c1C
 : 2065	0	1	-6	5	1.7	-89
> Cc1ccc(CCNC(=O)Cc2ccc(NC3=NC4CS(=O)(=O)CC4S3)cc2)cc1 (configuration not stated)
 : 4258	-4	3	4	-6	-12	-11
> Cc1nn(-c2ccccc2)c2nc(-c3ccccc3)cc(C(=O)N3CCOCC3)c12
 : 4324	8	8	3	16	-1.2	-10
> CCC(=O)Oc1ccc2c(C)cc(=O)oc2c1C
 : 4878	20	x	x	-1	1.8	-2

# Next section:
SMILES,Autofluor counter,BJeLR lethal,Mtb hypoxia rep,Mtb hypoxia rep growth,Sa ugtP lethal,Sa RN4220 lethal,PrP 5UTR inh
N#Cc1cccc(OC(=O)c2ccc3c(=O)n4c(nc3c2)CCC4)c1,u,5,2,9,-4,0.0,-7
CCN1CCN(c2ccc(NC(=O)c3cccc(OCc4ccccc4)c3)cc2)CC1,8552,5,12,13,3,0.6,-23
O=C(CCCCl)Oc1ccc2cc(-c3ccc4ccccc4n3)c(=O)oc2c1,2901,2,-1,7,6,6.2,-6
CCOC(=O)CCSc1nc(N2CCOCC2)c2c(c1C#N)CC(C)(C)OC2,3300,-9,3,1,10,-1.8,6
Cc1ccc(NC(=O)Cn2cnc3cc([N+](=O)[O-])ccc3c2=O)cc1,4867,-16,-3,4,4,-1.0,-9
c1ccc(Cn2c(SCCN3CCOCC3)nnc2-c2cccnc2)cc1,9045,4,4,0,0,1.5,-30
CN(CCc1ccccn1)C(=O)CN(C)S(=O)(=O)c1ccc2c(c1)c(=O)n(C)c(=O)n2C,16112,10,4,-1,10,5.0,-13
Cc1ccc2cc(CN(c3ccccc3C)S(=O)(=O)c3ccccc3)c(=O)[nH]c2c1,5704,-4,3,-1,2,6.3,-12
COc1ccccc1/C=N/NC(=O)c1ccc(N(C)S(=O)(=O)c2ccccc2)cc1,2445,2,x,x,x,x,-9
CC(C)[C@H](NC(=O)OC(C)(C)C)c1nnc(SCc2cccc(F)c2)o1,9708,3,16,6,7,0.0,-21
O=C(CN1C(=O)/C(=C/c2ccco2)SC1=S)Nc1ccc(O)c(C(=O)O)c1,5249,3,4,10,0,1.1,4
Cc1cc(C)cc(NC(=O)C(OC(=O)C2=COCCO2)c2ccccc2)c1 (configuration not stated),2543,0,-2,8,-4,1.9,-12
O=C(c1cc(COc2ccc(F)cc2Cl)on1)N1CCC(OCc2cccnc2)CC1,3994,4,-2,7,4,3.9,-11
Cn1nnnc1SCC(=O)c1c(N)n(C2CC2)c(=O)[nH]c1=O,3757,x,0,5,-5,-0.2,-9
COC(=O)c1cccc(C23CC4(C2)C(CN(Cc2cccnc2)C4c2ccccc2)C3c2ccc(Cl)nc2)c1 (configuration not stated),x,x,-8,5,-1,-2.5,x
O=c1[nH]c(NC2CCCCC2)c([N+](=O)[O-])c(=O)[nH]1,9899,-7,4,-2,1,4.0,3
COc1ccc(OC)c(NC(=O)CCC(=O)N(Cc2ccc(OC)c(OC)c2)c2nccs2)c1,2784,5,12,4,-3,4.5,-15
C/C(=N\NC(=O)c1ccc(N)cc1)C1CC1,4180,8,x,x,x,x,1
COc1ccc(NC(=O)CN2CCN(CC(=O)Nc3ccccc3Cl)CC2)c(OC)c1,22552*,-32,0,7,0,-0.9,-5
Cc1ccc(CNC(=O)c2ccccc2SCC(=O)NCC2CCCCC2)cc1,2653,0,-3,-8,2,-1.3,-14
Cc1cc(C(=O)NN=C/C(Cl)=C/c2ccccc2)c(C)o1,x,x,3,12,-7,-6.1,x
CCN(CC)c1ccc2nc3c4ccccc4c(=O)cc-3oc2c1,x,9,-7,2,2,0.9,x
O=C(NN=C1SCC(=O)N1CCc1ccccc1)c1cccs1,x,x,15,2,-5,4.6,x
c1ccc(N2CCN(c3c4c(nc5ncnn35)CCC4)CC2)cc1,21815*,14,-3,-5,4,1.6,-18
Cc1ccc(-n2c(C)cc(=O)cc2C)cc1[N+](=O)[O-],3678,-4,3,7,20,6.6,-8

# Limited to Mtb hypoxia rep, for some of the entries so far:
smiles,Mtb hypoxia rep
O=C(NN=C1SCC(=O)N1CCc1ccccc1)c1cccs1,15
COc1ccc(OC)c(NC(=O)CCC(=O)N(Cc2ccc(OC)c(OC)c2)c2nccs2)c1,12
COC(=O)c1cccc(C23CC4(C2)C(CN(Cc2cccnc2)C4c2ccccc2)C3c2ccc(Cl)nc2)c1 (configuration not stated),-8
CCN1CCN(c2ccc(NC(=O)c3cccc(OCc4ccccc4)c3)cc2)CC1,12

# Part of the list above, with two lines to a compound:
# Order of results: Autofluor counter	BJeLR lethal	Mtb hypoxia rep	Mtb hypoxia rep growth	Sa ugtP lethal	Sa RN4220 lethal	PrP 5UTR inh
Cc1ccc2cc(CN(c3ccccc3C)S(=O)(=O)c3ccccc3)c(=O)[nH]c2c1
  5704	-4	3	-1	2	6.3	-12
COc1ccccc1/C=N/NC(=O)c1ccc(N(C)S(=O)(=O)c2ccccc2)cc1
  2445	2	x	x	x	x	-9
CC(C)[C@H](NC(=O)OC(C)(C)C)c1nnc(SCc2cccc(F)c2)o1
  9708	3	16	6	7	0.0	-21

# More results follow.
SMILES,Autofluor counter,BJeLR lethal,Mtb hypoxia rep,Mtb hypoxia rep growth,Sa ugtP lethal,Sa RN4220 lethal,PrP 5UTR inh
Cc1ccc(N(C(C)C(=O)O)S(=O)(=O)c2c(C)n[nH]c2C)cc1 (configuration not stated),4528,7,x,x,2,-1.3,-10
CCN(CC)CCCNC(=O)Cn1ncn2cccc2c1=O,4567,-11,2,2,8,-4.3,-3
Cn1c(=O)oc2cc(S(=O)(=O)N3CCC(C(=O)NCc4ccccc4)CC3)ccc21,4269,15,11,5,8,-4.8,-32
CCc1nnc(NC(=O)CSc2nnc(-c3ccccc3O)n2-c2ccc(C)cc2)s1,4514,-9,0,10,-2,2.5,-17
Cn1c(N2CCOCC2)c(C=NO)c2ccccc21,x,x,7,5,2,3.2,x
COc1cc2ccccc2cc1C(=O)N1CCN(C(C)=O)CC1,4418,-8,13,0,15,2.8,-18
CN(Cc1ccccc1)C(=O)c1ccc(NC(=O)Cc2ccc(NC(=O)C3CCCN(C(=O)C4CCCCC4)C3)cc2)cc1 (configuration not stated),2773,x,-4,-4,5,4.8,-14
COc1ccc(CCNc2nncc(=O)[nH]2)cc1OC,7192,10,1,-6,8,3.9,-24
COc1ccc(C(=S)N2CCOCC2)cc1OS(=O)(=O)c1ccc(Br)cc1,6187,5,3,1,6,3.6,-16
Cc1ccc(N2C(=O)C3C=NNC3C2=O)cc1 (configuration not stated),4517,5,2,0,0,-3.3,-20
Cc1csc(NC(=O)Cn2cnnn2)n1,5598,-3,x,x,1,0.0,-2
COC(=O)c1c(CCl)noc1C(=O)NC(C)C,4359,-5,24,32,6,5.7,-15
Cc1oc(-c2cc(F)ccc2F)nc1CN1CCN(C)C(=O)[C@@H]1C,2010,-9,14,-2,3,5.9,-6
COc1ccc(Cc2nnc(-c3cccc(C)c3)o2)cc1OC,4259,6,12,11,6,7.1,-40
Oc1ccc(-c2csc(Nc3ncccn3)n2)c(O)c1,2627,-1,13,11,-4,8.1,-74
Cc1ccc(CN2CCCN(Cc3c(F)cccc3Cl)S2(=O)=O)cc1,2925,-1,4,3,18,0.5,-4
Cc1ccc2c(c1)cc(CN(Cc1ccc3c(c1)OCO3)S(=O)(=O)c1ccccc1)c1nnnn12,3551,-1,1,2,-8,1.1,-20
CC(=O)Nc1ccc(S(=O)(=O)NCC2CCC(C(=O)NC(C)c3ccc4c(c3)OCCO4)CC2)cc1 (configuration not stated),x,7,4,8,12,-1.2,x
C/C(=N\Nc1nc(C(C)(C)C)cs1)c1ccccc1,4457,7,x,x,x,x,-73
COc1cc(OC)c(NC(=S)Nc2cccc(C)c2)cc1Cl,2080,-5,13,6,5,1.7,-5
CCOC(=O)NC(=O)/C(C#N)=C\NNc1ncc(C(F)(F)F)cc1Cl,3480,4,2,1,2,2.3,-18
Cc1ccccc1C(=O)Nc1cccc(NC(=O)c2ccccc2[N+](=O)[O-])c1,x,7,8,-2,2,5.7,-3
COc1ccccc1N1CCN(c2ccc(N3C(=O)CCC3=O)cc2[N+](=O)[O-])CC1,4577,4,5,2,6,12,-28

# From PubChem BioAssay
